Assay outcomes as filed in PubChem.
Menin MLL FP FL – menin-MLL binding inhibition, fluorescein peptide; 290,000 tested, under 10 active; Fluorescence polarization, fluorescein-MLL peptide displacement from menin; FP activity change, % at 61.4 µM; AID 1766; inconclusive = falling polarisation curve, or a change in total fluorescence; inactive = total fluorescence flat and polarisation flat or rising; no compound was filed as active; the % refers to the polarisation; negative = inhibition;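 further: % of control where 0% means no effect; inhibitors lower the polarisation; unlabelled MLL peptide was the positive control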
TRPV1 PAM – enhances activation of the human vanilloid receptor TRPV1 | Q8NER1 | TRPV1-expressing cells, Fluo-8 calcium influx, capsaicin EC20 potentiation; host cell line not named in the record; control for the full effect not named in the record | potentiation, % at 8.33 µM | 320,000 tested, 0.02% active | AID 540277; active means potentiation above 80%; inconclusive means 30% to 80%; inactive means below 30%; further: 0% is about no effect
Target sequence (Q8NER1 whole entry, looked up): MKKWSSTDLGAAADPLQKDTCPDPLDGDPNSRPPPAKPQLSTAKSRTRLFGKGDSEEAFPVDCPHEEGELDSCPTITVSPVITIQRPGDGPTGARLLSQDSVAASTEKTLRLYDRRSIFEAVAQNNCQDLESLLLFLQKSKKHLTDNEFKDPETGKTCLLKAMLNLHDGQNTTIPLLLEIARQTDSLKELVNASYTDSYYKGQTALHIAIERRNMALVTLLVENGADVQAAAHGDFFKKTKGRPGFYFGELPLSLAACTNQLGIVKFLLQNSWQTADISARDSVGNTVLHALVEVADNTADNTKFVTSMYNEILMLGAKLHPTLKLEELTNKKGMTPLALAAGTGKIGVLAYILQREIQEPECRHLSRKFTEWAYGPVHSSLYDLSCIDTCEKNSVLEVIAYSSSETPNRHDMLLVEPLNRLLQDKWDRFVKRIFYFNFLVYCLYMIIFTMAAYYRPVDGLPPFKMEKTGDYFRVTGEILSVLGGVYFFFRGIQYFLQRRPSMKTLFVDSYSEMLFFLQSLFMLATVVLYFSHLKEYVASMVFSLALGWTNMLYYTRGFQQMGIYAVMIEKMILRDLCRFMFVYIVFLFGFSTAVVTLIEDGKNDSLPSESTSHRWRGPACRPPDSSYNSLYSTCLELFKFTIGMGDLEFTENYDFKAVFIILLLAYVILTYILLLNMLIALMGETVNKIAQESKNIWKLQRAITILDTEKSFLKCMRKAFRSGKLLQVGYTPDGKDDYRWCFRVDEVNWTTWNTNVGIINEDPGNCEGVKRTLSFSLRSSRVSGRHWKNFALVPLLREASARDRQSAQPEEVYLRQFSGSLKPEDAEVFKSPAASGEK
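TRPV1-expressing cells were cultured overnight at 35.5C and loaded with Fluo-8 calcium dye for 40 to 90 min at room temperature. After a 10 s baseline, compound was added and calcium influx was read kinetically for 3 min (ex 480/em 520 nm).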
gsp antagonist – gsp mutant antagonism; gsp-mutant cells, cAMP HTRF, 30 min; control for the full effect not named in the record; Potency, µM (top dose mostly 76.9 µM), for the others: top-dose activity change, negative = inhibition, most hits filed as inhibitors; 340,000 tested, 0.4% active; AID 624288; active = falling curve of any shape with a large fitted effect; inconclusive = falling curve, mostly with a smaller effect; inactive = flat or rising curve; cell line not stated here;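 further: intracellular cAMP measured with PDE inhibitor Ro 20-1724 present during compound exposure; potency means the concentration at half of the fitted maximal effect; on the % scale 0 is the no-effect control and ±100 the full control effect; nearly all actives have a fitted effect of over 65% in size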
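Cells in G418 medium, seeded 16-24 h, 37C; buffer exchange to DPBS + 1 mM CaCl2, 0.5 mM MgCl2, 0.05% BSA; cpds in DMSO + […] (300 uM stock), 30 min 37C; HTRF cAMP detection.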
ClpP mod – qHTS Assay for Activators of ClpP. ATP-dependent Clp protease proteolytic subunit (Bacillus subtilis (strain 168)), P80244. Potency, µM (highest dose often 57.5 µM), for inactives: at the top dose activity change, negative = active. AID 651965, 2013. purified B. subtilis ClpP, FRET peptide cleavage, 20 min. 340,000 tested, 1.9% active; active = well fitted falling curve with a large enough effect; inconclusive = small, poorly fitted or top-dose-only effect; inactive = no such curve, though single readings can be large or run the other way; further: potency means the concentration at half of the fitted maximal effect; the source files actives as falling curves though it sought activators and does not explain the sign; nearly all actives have a fitted effect of over 65% in size; many hits overshoot -100%
Target sequence (P80244 whole entry, looked up): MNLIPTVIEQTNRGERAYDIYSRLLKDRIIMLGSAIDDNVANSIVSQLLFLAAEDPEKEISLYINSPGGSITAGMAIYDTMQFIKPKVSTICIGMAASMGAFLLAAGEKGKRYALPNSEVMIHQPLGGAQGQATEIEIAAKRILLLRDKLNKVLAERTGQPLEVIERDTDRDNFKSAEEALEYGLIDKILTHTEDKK
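Buffer: 100 mM Tris/HCl pH8, 100 mM KCl, 0.05% low protease BSA, 2.5% glycerol, 0.01% Tween-20. ClpP 10 microg/mL final; 20 min RT; delta FRET normalized to ADEP and DMSO controls.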
Sfp inh – Sfp phosphopantetheinyl transferase inhibition | Biochemical Sfp PPTase activity, qHTS | Potency, µM, inactives show max response, negative = inhibition, usual class: inhibitors | 310,000 tested, 3.5% active | AID 1490; active means well fitted inhibition curve with a large enough effect; inconclusive means small, poorly fitted or top-dose-only effect, or another doubt; inactive means no such curve, though single readings can be large or run the other way;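 further: the enzyme is Sfp with the accession as filed and its product quenches rhodamine fluorescence; potency means the concentration at half of the fitted maximal effect; 0% = enzyme reaction without inhibitor and -100% = no enzyme wells; top concentration of the series not given in the record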
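Fluorescence-quenching assay with 15 nM Sfp, 5 uM rhodamine-CoA and 12.5 uM BHQ-2-labelled ybbR peptide in pH 7.6 Hepes/MgCl2 buffer. Enzyme was pre-incubated with compound for 15 min at room temperature. Rate was taken from the 30-min fluorescence change (525/598 nm).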
CtBP-E1A blk – inhibitors of CtBP/E1A interaction. AlphaScreen GST-E1A/His-CtBP binding, 1536-well; active compounds read low; control for the full effect not named in the record. activity change, % (test concentration not listed). 340,000 tested, 0.49% active. AID 651724; in the data active means activity change below about -65%; inconclusive means about -30% to -65%; inactive means above about -30%; further: on the % scale 0 is the no-effect control and ±100 the full control effect
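GST-E1A and His-tagged CtBP (125 nM each as 5X stock) were preincubated with pin-transferred compound for 2 h at 37 °C in the dark, then glutathione donor and nickel acceptor beads were added for 1 h before AlphaScreen reading.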
gsp ag – agonists of gsp mutant (McCune-Albright syndrome) | gsp mutant cells, cAMP HTRF, 30 min; control for the full effect not named in the record | 340,000 tested, 0.13% active | AID 624287 | Potency, µM (highest dose often 76.9 µM), for the others: top-dose activation (cAMP increase), most hits filed as activators; active = well fitted activation curve with a large enough effect; inconclusive = small, poorly fitted or top-dose-only effect, or another doubt; inactive = no such curve, though single readings can be large or run the other way; cell line not stated here;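 further: phosphodiesterase inhibitor Ro 20-1724 added with compounds to block cAMP breakdown; potency means the concentration at half of the fitted maximal effect; nearly all actives have a fitted effect of over 60% in size; about a fifth of the inactives were tested at one dose only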
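Cells in DMEM/10% FBS with G418 were pretreated with compounds in DMSO plus […] (300 uM stock) for 30 min at 37C. cAMP was measured by HTRF (cAMP-d2 plus anti-cAMP antibody-K) after 30 min at room temperature.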
Numbers without * were called inactive; ? = inconclusive; / = no result given; [ ] = dose if it differs, or a comment.

SMILES | Menin MLL FP FL | TRPV1 PAM | gsp antagonist | ClpP mod | Sfp inh | CtBP-E1A blk | gsp ag
CCCSc1nc(N)c(C#N)c(-c2ccc(C)cc2)c1C#N | 1.7 | -21 | 13% | -17% | 9% | 6 | -5%
CCN1C(=O)[C@H]2[C@@H](c3ccc(-c4ccc(OC)cc4)cc3)N3CCC[C@@]3(C(=O)OC)[C@H]2C1=O | / | -20 | -9% | 4.2% | / | 3 | /
O=C1c2ccsc2SCCN1Cc1cccc(F)c1 | 1.6 | -7 | 12% | 1.0% | 3% | 7 | -3%[15.4 µM]
CCCN(C(=O)COC(=O)c1[nH]c(C)c(C(=O)OC)c1C)c1c(N)n(Cc2ccccc2)c(=O)[nH]c1=O | / | 24 | -7% | / | / | 5 | -4%[15.4 µM]
CCn1cc(CNC(=O)CC2C(=O)NCCN2CC(c2ccccc2)c2ccccc2)cn1 (stereo not drawn) | -17 | 4 | 5% | -4.2% | -7% | / | 8%
CCCCn1c(SCC(=O)Nc2cc(C)on2)nc2ccsc2c1=O | 3.2 | -2 | 28% | 1.2% | -3% | 8 | 10%
COc1ccc(OC)c(C(=O)CSc2nnnn2C)c1 | 3.4 | -2 | 10% | -0.9% | ? | 2 | 3%
Cc1cc(C)c(C)c(OCC(=O)NCC2CCCO2)c1 (stereo not drawn) | -2.9 | ? | -5% | -0.5% | 4% | 4 | -13%
COCCN(C(=O)COC(=O)c1ccc(C=O)cc1)c1c(N)n(Cc2ccccc2)c(=O)[nH]c1=O | / | 7 | 7% | -0.2% | 22% | 4 | 2%
O=C(COc1ccccc1Cl)c1ccc2c(c1)CCCC2 | 7.4 | -9 | -19% | -1.4% | -1% | 38 | 5%
O=C(C(Cc1ccc(Cl)cc1)NS(=O)(=O)c1ccccc1)N1CC[C@@]2(O)CCCC[C@H]2C1 (stereo partly drawn) | 5.6 | 19 | -1% | -6.1% | -3% | 7 | 16%
CC1CCCC(C)N1C(=O)CN1C(=O)c2ccccc2S1(=O)=O (stereo not drawn) | / | -18 | 17% | 1.2% | / | / | -5%
CCCCn1nnc(NC(=S)NC(=O)c2ccc(-c3cccc(Cl)c3Cl)o2)n1 | -0.4 | -1 | -5% | 10% | ? | ? | -2%
CCN1CCN(C(C(=O)NC2CCCC2)c2ccc(Cl)cc2)CC1 (stereo not drawn) | 0.8 | / | 13% | 0.1% | 20% | 7 | 5%
COC(=O)[C@H](CCSC)NC(=O)NCCC1=CCCCC1 | -0.4 | -7 | 9% | -0.6% | -5% | 4 | -39%[inhibitor]
COc1ccc(S(=O)(=O)Nc2ccc(F)c(Cl)c2)cc1OC | -1.2 | -10 | 0% | -4.6% | -2% | -5 | -28%
CC(=O)Oc1c(Cl)cc(N(C(C)=O)S(=O)(=O)c2ccccc2)c2ccccc12 | / | / | -28% | 1.2% | / | / | 5%
COC(=O)c1ccc(OC(=O)CCS(=O)(=O)c2ccc(C)cc2)cc1 | / | 2 | -4% | 0.4% | / | -15 | -20%
O=S(=O)(Nc1cccc(CCc2ccccn2)c1)c1ccc(Cl)cc1 | 3.1 | 0 | -12% | 1.7% | -5% | / | 1%
CN(C)C(=O)CSc1nnc(CCCCCNC(=O)OC(C)(C)C)o1 | 1.2 | 13 | 10% | -1.4% | 16% | 1 | -59%[inhibitor]
CSc1nsc(SC)c1C(=O)Nc1ccc(C(C)(C)C)cc1 | 3.1 | -4 | -22% | / | 3% | 19 | ?
CC(C)(C)C1(O)CC(C(F)(F)F)=NN1C(=O)CCc1ccccc1 (stereo not drawn) | 0.9 | -4 | 8% | / | 15% | 5 | 0%[15.4 µM]
CC(C)CN(C(=O)c1cc([N+](=O)[O-])cc([N+](=O)[O-])c1)C1CCS(=O)(=O)C1 (stereo not drawn) | / | 8 | 12% | 1.6% | / | 8 | -18%
CCOC(=O)c1cccc(N2C(=O)C3C(C2=O)C2C=CC3C23CC3)c1 (stereo not drawn) | 4.6 | 6 | 5% | 1.4% | 2% | 0 | 3%
CCC(=O)N(Cc1cc2cc(OC)ccc2[nH]c1=O)c1cccc(C)c1 | -1.3 | 4 | -7% | -3.2% | 7% | 10 | -17%
CCOc1ccc(-n2c(C)cc(C(=O)CCl)c2C)cc1 | -0.6 | -3 | 18% | -1.2% | -1% | 3 | 5%[15.4 µM]
COc1ccc(NS(=O)(=O)c2cccc(C(=O)NNC(=O)c3ccc(NC(C)=O)cc3)c2)cc1 | / | -28 | -9% | -2.1% | / | -14 | 1%
COc1cc(C2NCCC(=O)C2(C)C)cc(OC)c1OC (stereo not drawn) | -0.7 | 16 | 6% | -3.4% | 17% | 6 | -3%
O=C(Nc1cccc2ccccc12)c1nn(C23CC4CC(CC(C4)C2)C3)cc1[N+](=O)[O-] | 1.5 | 10 | -16% | -0.3% | 5% | -18 | -1%
O=c1[nH]c(=O)c2nc3c4ccccc4c4ccccc4c3nc2[nH]1 | ? | 6 | -12% | / | ? | / | -23%[15.4 µM]

Some of these compounds in order of the Menin MLL FP FL value, ascending:
| structure | Menin MLL FP FL |
| --- | --- |
| COc1cc(C2NCCC(=O)C2(C)C)cc(OC)c1OC (stereo not drawn) | -0.7 |
| CCOc1ccc(-n2c(C)cc(C(=O)CCl)c2C)cc1 | -0.6 |
| CC(C)(C)C1(O)CC(C(F)(F)F)=NN1C(=O)CCc1ccccc1 (stereo not drawn) | 0.9 |
| CN(C)C(=O)CSc1nnc(CCCCCNC(=O)OC(C)(C)C)o1 | 1.2 |
| O=C1c2ccsc2SCCN1Cc1cccc(F)c1 | 1.6 |
| O=S(=O)(Nc1cccc(CCc2ccccn2)c1)c1ccc(Cl)cc1 | 3.1 |
| COc1ccc(OC)c(C(=O)CSc2nnnn2C)c1 | 3.4 |

More results follow.
SMILES | Menin MLL FP FL | TRPV1 PAM | gsp antagonist | ClpP mod | Sfp inh | CtBP-E1A blk | gsp ag
Cc1ccc(C(=O)NCC2(c3ccccc3)CCCC2)cc1 | 1.7 | 6 | -6% | -3.7% | 22% | -2 | -1%
Cc1cccc(-c2ccc3c(c2)C2CC3CCN2C(=O)OCc2ccccc2)c1 (stereo not drawn) | / | / | 2% | -1.4% | / | 9 | /
O=C(C1CCCN1S(=O)(=O)c1ccc(Cl)cc1)N1CCCCC1 (stereo not drawn) | -0.2 | 2 | -2% | -7.6% | 5% | 11 | 1%
O=C(CSc1ccc2nnc(-c3ccncc3)n2n1)NCC1CCCO1 (stereo not drawn) | 0.9 | 0 | 9% | -19% | 14% | -2 | ?
Cc1c(C(=O)NC2CCCc3ccccc32)cccc1[N+](=O)[O-] (stereo not drawn) | ? | -3 | 4% | / | 12% | 0 | -8%[15.4 µM]
O=C(NC(=O)c1cccc(OC(F)(F)C(F)F)c1)OC1CCS(=O)(=O)C1 (stereo not drawn) | -1.4 | -8 | 8% | 2.4% | ? | -2 | 10%
Cc1cc(OCC(=O)N(Cc2ccccc2)C2CCS(=O)(=O)C2)ccc1Cl (stereo not drawn) | / | 25 | -7% | -0.3% | 13% | 4 | 21%
CC(C)n1cnnc1SCC(=O)Nc1cccc(S(=O)(=O)N(C)c2ccccc2)c1 | -0.2 | 2 | -5% | -2.4% | 19% | -6 | -3%
Cn1c(=O)c2cc3ccc(Cl)cc3nc2n(C)c1=O | -1.6 | -3 | 6% | -1.2% | 35%[activator] | -4 | -3%[15.4 µM]
COc1cc(/C=C2/SC(=O)N(Cc3ccccc3)C2=O)ccc1OCc1ccncc1 | -0.4 | 17 | -9% | 5.0% | -6% | 17 | -25%
Nc1ncnc2[nH]c(=S)[nH]c12 | / | / | -3% | / | / | -14 | 22%
Cn1cnc2c1c(=O)n(Cc1cccc(F)c1)c(=O)n2C | -1.6 | -3 | 7% | -0.2% | 1% | / | ?
CCOC(=O)C1CCN(CC(=O)Nc2ccc(S(=O)(=O)N3CCC(C)CC3)cc2)CC1 | -1.5 | -3 | -3% | -0.9% | 7% | / | 22%
COc1cc(/C=C/C(=O)O)cc(S(=O)(=O)Nc2ccc3[nH]c(=O)[nH]c3c2)c1OC | -0.2 | -1 | 8% | 1.0% | -9% | 27 | -3%[15.4 µM]
COc1ccc2cnn(-c3ccc(OC(F)(F)F)cc3)c(=O)c2c1OC | -1.1 | 11 | 4% | / | 17% | 8 | ?
C[C@H](O)[C@@H]1C(=O)N2CCc3c([nH]c4ccccc34)[C@@H]2C[C@@H]1N(C)Cc1ccc(Cl)cc1 | / | / | / | -24% | / | -12 | -28%
O=c1nc(-c2ccccc2)c2cc(Br)ccc2[nH]1 | -2.3 | 1 | -7% | / | 6% | -24 | 16%
Cc1ccccc1N1Cc2ccccc2C1=O | / | / | / | -3.5% | / | 3 | 8%
COC(=O)c1sccc1-n1cccc1C(=O)C(=O)N1CCCCC1 | -0.9 | -6 | 3% | 0.1% | 11% | -2 | -27%
CCc1ccc(CNC(=O)CCCn2c(=O)c3cccn3c3cccnc32)cc1 | -1.4 | -1 | 15% | -17% | -11% | -14 | 1%
c1ccc2[nH]c(CN3CCCCCC3)nc2c1 | 4.4 | 8 | 2% | -3.7% | -2% | 1 | 2%
c1ccc2[nH]c(SCCN3CCOCC3)nc2c1 | 0.7 | -11 | 8% | 0.6% | 8% | 7 | -8%
COc1ccc(-n2c(C)nc3c(cnn3-c3ccc(C)c(C)c3)c2=O)cc1 | 0.8 | / | -1% | -9.8% | -5% | -7 | 2%
O=C(Nc1ccccc1N1CCCC1)c1ccc(N2CCCC2=O)cc1 | / | -9 | -6% | 0.5% | / | 2 | 27%
O=C(Nc1ccc2c(c1)CCC2)c1ccc(F)cc1 | 5.7 | -6 | -6% | -0.6% | 11% | 9 | 7%

3 compounds already listed, ordered by SMILES length, low to high.
SMILES | Menin MLL FP FL | TRPV1 PAM | gsp antagonist | ClpP mod | Sfp inh | CtBP-E1A blk | gsp ag
c1ccc2[nH]c(CN3CCCCCC3)nc2c1 | 4.4 | 8 | 2% | -3.7% | -2% | 1 | 2%
c1ccc2[nH]c(SCCN3CCOCC3)nc2c1 | 0.7 | -11 | 8% | 0.6% | 8% | 7 | -8%
O=C(Nc1ccc2c(c1)CCC2)c1ccc(F)cc1 | 5.7 | -6 | -6% | -0.6% | 11% | 9 | 7%
